# ClpP mod: qHTS Assay for Activators of ClpP; 340,000 tested, 1.9% active; purified B. subtilis ClpP, FRET peptide cleavage, 20 min; ATP-dependent Clp protease proteolytic subunit (Bacillus subtilis (strain 168)), P80244; Potency, µM (series often up to 57.5 µM), for inactives: at the top dose activity change, negative = active; active = well fitted falling curve with a large enough effect; inconclusive = small, poorly fitted or top-dose-only effect; inactive = no such curve, though single readings can be large or run the other way; further: potency means the concentration at half of the fitted maximal effect; the source files actives as falling curves though it sought activators and does not explain the sign; nearly all actives have a fitted effect of over 65% in size; many hits overshoot -100%
# Target sequence (P80244 whole entry, looked up): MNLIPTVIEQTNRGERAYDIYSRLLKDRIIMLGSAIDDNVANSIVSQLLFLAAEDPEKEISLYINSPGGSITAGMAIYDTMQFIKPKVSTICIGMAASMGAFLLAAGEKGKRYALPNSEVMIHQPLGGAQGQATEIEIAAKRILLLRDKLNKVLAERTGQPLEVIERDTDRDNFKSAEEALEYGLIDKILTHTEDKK
#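 FRET quenching reversal measured ClpP activation: 10 microg/mL B. subtilis ClpP at pH 8 with the FRET-FV decapeptide, read at 430 nm after 320 nm excitation. The 20-min minus 0-min signal was scaled between DMSO/no-enzyme wells and ADEP (5.8 microM final).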
# D2 PAM: positive allosteric modulators of human D2 dopamine receptor | 360,000 tested, 0.23% active | DiscoveRx D2 beta-arrestin cells, luminescence, 90 min; 100% = 57 uM dopamine signal | P14416 | potentiation, % (no concentration beside the values) | AID 624464; active = potentiation of 50% or more; inconclusive = 30% to 50%; inactive = 30% or less;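 further: compound concentration not given in the record; tested on top of an EC20 dose of dopamine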
#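 D2 cells co-treated with compound plus 50 nM dopamine (EC20) for 90 min at 37 deg C to detect potentiation. Beta-arrestin recruitment was read as enzyme-fragment luminescence after 1 h at ambient temperature. Full response was set by 57 uM dopamine.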
# TRPV1 PAM: potentiators of human vanilloid receptor 1 (TRPV1); 320,000 tested, 0.02% active; TRPV1-expressing cells, Fluo-8 calcium influx, capsaicin EC20 potentiation; host cell line not named in the record; control for the full effect not named in the record; Q8NER1; potentiation, % at 8.33 µM; active means potentiation above 80%; inconclusive means 30% to 80%; inactive means below 30%; further: 0% is about no effect
# Target sequence (Q8NER1 whole entry, looked up): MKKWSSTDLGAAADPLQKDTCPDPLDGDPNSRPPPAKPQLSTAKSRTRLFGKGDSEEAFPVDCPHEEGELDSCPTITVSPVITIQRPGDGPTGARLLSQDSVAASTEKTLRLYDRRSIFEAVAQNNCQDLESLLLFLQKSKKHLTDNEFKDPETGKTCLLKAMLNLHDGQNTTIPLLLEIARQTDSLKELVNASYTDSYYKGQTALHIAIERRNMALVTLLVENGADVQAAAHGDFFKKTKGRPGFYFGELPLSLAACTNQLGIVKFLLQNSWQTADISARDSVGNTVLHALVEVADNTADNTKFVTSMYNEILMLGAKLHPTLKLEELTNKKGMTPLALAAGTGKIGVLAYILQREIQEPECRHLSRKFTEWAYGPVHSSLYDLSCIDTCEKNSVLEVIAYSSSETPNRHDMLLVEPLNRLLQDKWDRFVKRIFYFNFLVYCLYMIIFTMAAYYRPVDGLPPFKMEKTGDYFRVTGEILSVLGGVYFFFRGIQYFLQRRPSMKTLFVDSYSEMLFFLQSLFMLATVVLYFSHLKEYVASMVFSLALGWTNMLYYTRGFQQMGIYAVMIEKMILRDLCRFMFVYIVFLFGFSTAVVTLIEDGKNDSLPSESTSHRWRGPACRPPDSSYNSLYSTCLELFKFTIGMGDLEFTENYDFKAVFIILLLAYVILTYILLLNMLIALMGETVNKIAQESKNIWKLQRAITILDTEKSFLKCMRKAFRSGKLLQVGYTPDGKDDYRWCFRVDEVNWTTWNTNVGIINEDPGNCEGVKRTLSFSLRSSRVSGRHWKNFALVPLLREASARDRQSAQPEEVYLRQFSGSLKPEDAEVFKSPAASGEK
#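 TRPV1-expressing cells were cultured overnight at 35.5C and loaded with Fluo-8 calcium dye for 40 to 90 min at room temperature. After a 10 s baseline, compound was added and calcium influx was read kinetically for 3 min (ex 480/em 520 nm).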
# gsp ag: agonists of gsp mutant (McCune-Albright syndrome) | AID 624287 | 340,000 tested, 0.13% active | gsp mutant cells, cAMP HTRF, 30 min; control for the full effect not named in the record | Potency, µM (titrated, usually from 76.9 µM), for inactives: at the top dose activation (cAMP increase), usual class: activators; active = well fitted activation curve with a large enough effect; inconclusive = small, poorly fitted or top-dose-only effect, or another doubt; inactive = no such curve, though single readings can be large or run the other way; cell line not stated here;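 further: phosphodiesterase inhibitor Ro 20-1724 added with compounds to block cAMP breakdown; potency means the concentration at half of the fitted maximal effect; nearly all actives have a fitted effect of over 60% in size; about a fifth of the inactives were tested at one dose only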
#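 Cells stably selected in G418 were plated at 2000/well, grown 16-24 hr, then given compounds in DMSO with the PDE inhibitor […] (300 uM solution added) for 30 min at 37C; cAMP was read by HTRF.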
# gsp antagonist: antagonizes gsp, the McCune-Albright syndrome mutation; 340,000 tested, 0.4% active; gsp-mutant cells, cAMP HTRF, 30 min; control for the full effect not named in the record; Potency, µM (titrated, usually from 76.9 µM), for inactives: at the top dose activity change, negative = inhibition, actives largely listed as inhibitors; active = falling curve of any shape with a large fitted effect; inconclusive = falling curve, mostly with a smaller effect; inactive = flat or rising curve; cell line not stated here;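 further: intracellular cAMP measured with PDE inhibitor Ro 20-1724 present during compound exposure; potency means the concentration at half of the fitted maximal effect; on the % scale 0 is the no-effect control and ±100 the full control effect; nearly all actives have a fitted effect of over 65% in size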
#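 Cells in G418 medium, seeded 16-24 h, 37C; buffer exchange to DPBS + 1 mM CaCl2, 0.5 mM MgCl2, 0.05% BSA; cpds in DMSO + […] (300 uM stock), 30 min 37C; HTRF cAMP detection.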
# Menin-MLL FL inh: inhibitors of human menin-MLL interaction, wild-type MLL peptide; Fluorescence polarization, fluorescein-MLL peptide displacement from menin; FP activity change, % at 61.4 µM; 290,000 tested, under 10 active; AID 1766; inconclusive = falling polarisation curve, or a change in total fluorescence; inactive = total fluorescence flat and polarisation flat or rising; no compound was filed as active; the % refers to the polarisation; negative = inhibition;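 further: % of control where 0% means no effect; inhibitors lower the polarisation; unlabelled MLL peptide was the positive control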
# Sfp inh: inhibitors of Bacillus subtilis Sfp phosphopantetheinyl transferase | Potency, µM, for inactives: max response, negative = inhibition, hits mostly inhibitors | 310,000 tested, 3.5% active | Biochemical Sfp PPTase activity, qHTS | AID 1490 | Q9F4F7; active means well fitted inhibition curve with a large enough effect; inconclusive means small, poorly fitted or top-dose-only effect, or another doubt; inactive means no such curve, though single readings can be large or run the other way;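 further: the enzyme is Sfp with the accession as filed and its product quenches rhodamine fluorescence; potency means the concentration at half of the fitted maximal effect; 0% = enzyme reaction without inhibitor and -100% = no enzyme wells; top concentration of the series not given in the record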
#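 Sfp 15 nM + cpd, 15 min RT; start w/ rhodamine-CoA 5 uM, BHQ-2-YbbR 12.5 uM (final); 50 mM Hepes pH 7.6, 10 mM MgCl2, 0.01% NP-40, 0.01% BSA; read 525/598 nm at 0 and 30 min.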
# Numbers without * were called inactive; ? = inconclusive; · = not tested or not shown; & = joins results of further samples; [ ] = another dose, or the depositor's remark.
SMILES,ClpP mod,D2 PAM,TRPV1 PAM,gsp ag,gsp antagonist,Menin-MLL FL inh,Sfp inh
O=[N+]([O-])c1ccc(-c2nc(=S)c3c(o2)CCCC3)cc1,0.6%,-18,1,-61%[inhibitor],11%,2.8,-18%
CCc1cc2c(=O)c(-c3cnn(-c4ccccc4)c3)c(C(F)(F)F)oc2c(CN(C)C)c1O,0.4%,6,5,-6%,-1%,-0.8,-7%
O=C(CSc1nnc(-c2cccnc2)n1CCc1ccccc1)NCc1ccccc1,1.2%,0,-1,-1%,-5%,0.3,21%
Cc1cc(C)n2nc(SCC(=O)c3ccc[nH]3)nc2n1,-4.3%,-12,0,14%,-2%,6.0,12%
CCCCN(C(=O)CN1C(=O)C2CC=CCC2C1=O)c1c(N)n(CCC)c(=O)[nH]c1=O (stereo not given),-1.4%,3,-11,1%,12%,3.7,13%
CCn1nnc(NC(=O)COc2ccc([N+](=O)[O-])cc2)n1,·,0,-1,8%,1%,2.9,-1%
Cc1cc(F)ccc1S(=O)(=O)N1CCCOC1CNC(=O)C(=O)NCc1ccc2c(c1)OCO2 (stereo not given),-0.6%,6,-7,-41%[inhibitor],1%,·,15%
O=c1cc(-c2ccccc2Cl)oc2c(NS(=O)(=O)c3cc(Cl)cc(Cl)c3O)ccc(O)c12,-1.2%,-11,18,·,?,-3.2&-1.7,-17%&-2%
COc1cccc(-c2nnc(SCC(=O)Nc3cc(C)on3)o2)c1,-0.7%,6,8,-14%,-2%,0.7,2%
Cc1ccc(S(=O)(=O)NCC(=O)N/N=C/c2ccccc2O)cc1,·,-7,-1,-37%[inhibitor],0%,5.0,18%
O=C(COn1nnc2ccc(S(=O)(=O)N3CCOCC3)cc21)NCCc1ccccc1,-3.0%,22,-24,7%,8%,·,·
O=C(CN1C(=O)c2ccccc2S1(=O)=O)Nc1cccc(S(=O)(=O)N2CCCCC2)c1,-1.0%,-9,·,11%,-16%,·,·
CCSc1nc2ccccc2n1Cc1cccc([N+](=O)[O-])c1,-0.5%,-24,-12,20%,?,1.4,8%
CC(C)OC(=O)c1c(NC(=O)c2cccs2)sc2c1CCCC2,?,-10,0,10%,3%,5.3,?
CCN(c1ccccc1)S(=O)(=O)c1cc([N+](=O)[O-])ccc1N,·,-17,8,-4%[15.4 µM],-6%,-9.7,21%
COc1ccc(N2CCn3c2nc2c3c(=O)n(CCc3ccccc3)c(=O)n2C)cc1,·,·,7,·,·,1.9,6%
COCc1ccc(C(=O)N2CCCC(C(=O)c3cc(F)ccc3F)C2)s1 (stereo not given),·,-9,12,26%[15.4 µM],0%,0.7,21%
N#CCCN/N=C(/Cc1nc2ccccc2[nH]1)c1cccc(Cl)c1,-13%,5,4,14%,-20%,9.3,9%
Cc1ccccc1-c1cc(=O)c2c(O)cccc2o1,0.4%,-8,-10,?,-9%,6.6,?
COCCCn1c(-c2ccc(S(=O)(=O)N3CCOCC3)cc2)csc1=Nc1ccccc1,-5.3%&-5.8%,19,10,-5%,-10%,-0.1,-7%
COc1ccc(-c2c(-c3ccccc3)n(C)c3ccccc23)cc1,3.3%,2,·,?,-11%,·,·
CCc1c(C)sc(NC(=O)c2ccc(Br)o2)c1C(=O)OC,?,-20,-15,-1%,-36%,-2.1,-5%
O=C(Oc1c(Cl)cc(Cl)c2cccnc12)c1ccco1,-1.3%,-49,6,?,2%,0.4,1%
C=CCN(CC=C)C(=S)NCCc1ccc(OC)c(OC)c1,-0.9%,-18,5,-6%,7%,4.8,-4%
O=C(NCc1ccccc1)C(c1ccc(Cl)cc1)N(C(=O)c1csnn1)C1CC1 (stereo not given),1.7%,-4,-8,0%,0%,4.3,18%
Cc1cc(=O)oc2cc(OCC(=O)OCC(=O)NC3CC3)ccc12,·,-11,-12,7%[15.4 µM],-7%,1.6,-6%
COc1ccc(NC(=O)c2ccc(NC(=O)COC(=O)c3cnc(C)cn3)cc2)cc1,·,-7,-2,-2%[15.4 µM],8%,·,·
COc1ccccc1-c1cnc2c(c1)C(=O)N([C@@H](C)CO)C[C@@H](C)[C@H](CN(C)C(=O)c1cccnc1)O2,-2.3%,11,·,-121%[inhibitor],·,·,·
Cc1noc(/C=C/c2ccccn2)c1[N+](=O)[O-],·,-3,0,-67%[inhibitor],7%,-4.2,-9%
CCCNS(=O)(=O)c1ccc(NC(=O)c2cccnc2)cc1,0.6%,3,-5,?,3%,-2.2,11%
COc1ccc(-c2c(NC(=O)c3ccco3)oc3c(C)cccc3c2=O)cc1OC,·,3,26,11%,-10%,·,9%
CC(=O)Nc1ccc(S(=O)(=O)NC2=NCN(c3cccc([N+](=O)[O-])c3)CN2)cc1,·,0,22,-2%[15.4 µM],-9%,0.2,16%
CCCCc1nc2ccccc2n1Cc1nnc2n1-c1ccccc1SC2,-0.5%,-13,-6,34%,-2%,3.9,12%
CCOc1ccc(C)cc1S(=O)(=O)n1cnc2ccccc21,0.7%,18,-10,-115%[inhibitor],6%,-0.6,2%
CCC(=O)N(c1nnc(SCC(=O)Nc2sccc2C(N)=O)s1)C1CC1,-0.7%,-7,·,-15%,·,·,·
Nc1nnc(Cc2ccc(Cl)c(Cl)c2)s1,-0.8%,-1,9,5%,1%,-1.9,23%
CC(=O)N/C(=N\c1nc(C)cc(C)n1)Nc1ccc2ccccc2c1,0.3%,-5,1,8%[15.4 µM],2%,6.0,-2%
Cc1ccccc1NC(=O)N1CCN(C/C=C/c2ccccc2)CC1,0.7%,-7,-3,3%,3%,-0.7,12%
COC(C(=O)Nc1ccnn1C1CCN(Cc2ccccn2)CC1)c1ccccc1 (stereo not given),-7.5%,-5,-14,-42%,9%,·,7%
CCN1/C(=C/c2sc(-c3ccccc3C)c[n+]2C)Sc2ccccc21,0.0%,-15,-5,0%[15.4 µM],16%,-1.6,1%
CC(=O)c1sc2c(c1OC(=O)c1ccccc1)c(=O)n(-c1ccccc1)c(=S)n2-c1ccccc1,-4.2%,-16,·,?,-8%,·,·
O=C(c1ccc2c(c1)OCO2)C1CCCN(Cc2ccc3cccc(F)c3n2)C1 (stereo not given),·,-10,0,-10%[15.4 µM],-6%,2.0,20%
CCOC(=O)c1sc(C)c2c(=O)n(CC(=O)c3ccc(Br)cc3)nnc12,1.4%,-7,?,-6%,-22%,-0.3,-5%
COc1ccc(C(=O)OCC(=O)Nc2cccc(S(=O)(=O)NC3=NCCCCC3)c2)cc1[N+](=O)[O-],1.4%,-17,·,-8%,7%,·,·
CCOC(=O)C1CCCCN1Cc1cn[nH]c1-c1ccc(F)cc1F (stereo not given),0.8%,-11,-8,-54%[inhibitor],13%,-0.3,9%
Cc1ccc(NC(=O)CSc2nnc(Cc3cccn3C)n2-c2ccc(F)cc2)cc1,3.5%,-10,1,-53%[inhibitor],1%,6.1,-9%
O=C1C2C3C=CC(C3)C2C(=O)N1c1nccs1 (stereo not given),1.1%,-5,-1,-6%,4%,-1.0,10%
CCCCOC(=O)c1ccc(NC(=O)c2cnc3n(c2=O)CCS3)cc1,-0.2%,14,-8,26%[15.4 µM],20%,3.4,9%
CCN(CC)c1ccc(NC(=O)CN2C(=O)CC(C)(C)S(=O)(=O)c3ccccc32)c(C)c1,-0.9%,-3,-1,14%,0%,-2.0,-17%
N=c1oc2ccccc2cc1C(=O)Nc1ccc(F)cc1,·,3,7,-15%[15.4 µM],-1%,61[activator],5%
Cc1coc2c(C)c3oc(=O)c(CCC(=O)N(C)CC(=O)O)c(C)c3cc12,3.9%,-1,6,3%,0%,0.9,2%
O=C(CSC1=NS(=O)(=O)c2cc(Cl)ccc2N1)NCc1ccc(F)cc1,0.9%,-4,11,-10%,-4%,·,·
COc1cccc(-c2cc(C(=O)N3N=C(C)CC3(O)C(F)F)c3ccccc3n2)c1 (stereo not given),·,-12,-16,-2%[15.4 µM],-13%,-3.5,21%
Cc1ccc(S(=O)(=O)NCCCNS(=O)(=O)c2ccccc2)cc1,-3.3%,-6,-4,-21%,2%,4.1,18%
Cc1cc(=O)[nH]c(SCC(=O)NC2CCCc3ccccc32)n1 (stereo not given),-2.5%,-9,-6,6%,3%,-4.0,12%
Cc1ccc(NC(=O)C(=O)NCc2ccccn2)cc1,·,4,-11,27%,11%,-0.6,2%
O=C1NC[C@H](c2ccccc2)OC(=O)[C@@H](Cc2ccc(F)cc2)CC/C=C/C[C@H]1CC(=O)N(CCO)Cc1ccccc1,0.1%,11,·,17%,?,·,·
CCOC(=O)c1cnc(-n2nc(C)cc2C)nc1NNc1ncc(-c2ccccc2)cn1,-0.2%,-12,8,-1%[15.4 µM],-4%,3.8,-5%
O=[N+]([O-])c1cc(C(F)(F)F)cc([N+](=O)[O-])c1Sc1n[nH]c(C(F)(F)F)n1,·,-11,3,-29%,5%,3.2,56µM*
COc1ccc(Cl)cc1NC(=O)CSc1nc(NS(=O)(=O)c2ccccc2)cc(=O)[nH]1,·,-9,9,-27%,2%,0.4,0%

# (cont.)
SMILES,ClpP mod,D2 PAM,TRPV1 PAM,gsp ag,gsp antagonist,Menin-MLL FL inh,Sfp inh
COc1ccc(C(=O)/C=C/C(=O)N(Cc2ccc3c(c2)OCO3)C(C(=O)NC2CCCCC2)c2ccncc2)c(O)c1 (stereo not given),13µM*,-13,-17,-64%[inhibitor],-4%,-0.8,-5%
O=C(COC(=O)c1cc(Cl)ccc1Cl)NCCN1C(=O)CSC1=O,9.3%,-15,-8,-7%,-7%,3.9,-2%
CCOC(=O)/C(C#N)=C\c1ccco1,0.3%,-7,-6,25%,5%,3.9,15%
Cc1ccc2c(c1C)NC(=O)C21N2CCCC2C(C(=O)c2ccc3ccccc3c2)C12C(=O)Nc1ccccc12 (stereo not given),-0.5%,-22,15,2%,-12%,-2.2,11%
CCCCn1c(N)c(N(CCC(C)C)C(=O)C2CCCO2)c(=O)[nH]c1=O (stereo not given),0.7%,-19,-10,?,4%,·,·
O[C@@H]1COC(Nc2ccc(N=Nc3ccccc3)cc2)C[C@@H]1O (stereo not given in full),0.6%,-11,8,-4%[15.4 µM],5%,1.8,8%
